# Assay outcomes from PubChem BioAssay.
# Rango dissoc inh: qHTS Assay for Inhibitors of RanGTP induced Rango (Ran-regulated importin-beta cargo) - Importin beta complex dissociation | Biochemical FRET Rango-importin beta, RanGTP-induced dissociation | Potency, µM (top dose mostly 46.1 µM), for inactives: top-dose activity change, negative = inhibition | 340,000 compounds, 0.071% hits | AID 540253, 2011; active means falling FRET ratio curve, often poorly fitted, with flat reads before Ran was added; inconclusive means other falling curves, or compound fluorescence or quenching; inactive means flat or rising ratio curve;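 also: potency is read from the fitted curve at half-maximal effect; % of control where 0% means no effect; nearly all actives have a fitted effect of over 45% in size; -100% = wells without RanGTP and RCC1; the record marks most hits as doubtful in a second field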
#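 Compounds sat 5 min at room temperature with 0.1 uM Rango biosensor plus 0.25 uM importin beta, then FRET pre-read. RanGTP-RCC1 (0.6 uM Ran, 2mM GTP, 0.2 uM RCC1) added for 45 min, and the CFP/YFP post-read measured blocked complex dissociation.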
# GLA inh pH 4.5: qHTS Assay for Inhibitors of Human alpha-Galactosidase at pH 4.5; purified enzyme, 4-MU-alpha-Gal fluorescence, pH 4.5; Alpha-galactosidase A (Homo sapiens), P06280; 230,000 tested, under 10 active; activity change, negative = inhibition, % at 105 µM; inconclusive = small, poorly fitted or top-dose-only inhibition, or a rising curve; inactive = flat fitted curve, though single readings scatter; no compound was filed as active;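 also: 0% = full activity with enzyme and -100% = basal without enzyme; dose as in the result columns while the protocol names 77 µM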
# Target sequence (P06280 whole entry, looked up): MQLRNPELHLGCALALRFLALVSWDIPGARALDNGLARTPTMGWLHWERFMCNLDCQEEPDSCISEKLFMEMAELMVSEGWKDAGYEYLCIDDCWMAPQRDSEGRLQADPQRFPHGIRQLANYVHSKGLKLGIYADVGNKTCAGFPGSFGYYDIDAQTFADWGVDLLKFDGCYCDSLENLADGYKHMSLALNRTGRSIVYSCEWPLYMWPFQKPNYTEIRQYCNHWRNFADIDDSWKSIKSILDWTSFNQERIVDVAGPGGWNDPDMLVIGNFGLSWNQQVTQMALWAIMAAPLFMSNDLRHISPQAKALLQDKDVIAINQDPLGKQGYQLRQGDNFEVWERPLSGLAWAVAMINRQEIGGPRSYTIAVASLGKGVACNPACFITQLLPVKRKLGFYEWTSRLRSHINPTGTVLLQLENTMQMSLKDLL
# Rango-impB inh: qHTS Assay for Inhibitors of Rango (Ran-regulated importin-beta cargo) - Importin beta complex formation | Rango CFP/YFP FRET sensor + importin beta, 45 min | Potency, µM (doses to about 92.2 µM), for inactives: top-dose inhibition of complex formation | 340,000 compounds, 0.031% hits | Importin subunit beta-1 (Homo sapiens), Q14974 | AID 540263, 2011; active = rising FRET ratio curve, often small or poorly fitted; inconclusive = mostly compound fluorescence or quenching in the first reads; inactive = flat curves in all reads;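 also: potency is read from the fitted curve at half-maximal effect; 0% = DMSO wells and 100% = buffer wells lacking importin beta; nearly all actives have a fitted effect of over 15% in size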
#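 FRET biosensor Rango (snurportin 1 IBB between N-terminal EYFP and C-terminal Cerulean), 50 nM in PBS/1 mM DTT/0.02% Tween-20/0.1% BSA, preincubated 5 min RT with compound; 0.125 microM importin beta added, 45 min RT, CFP/YFP FRET ratio read.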
# miR-21 FLuc: qHTS Assay for Modulators of miRNAs and/orActivators of miR-21; HeLa miR-21 FLuc reporter, luciferase, 48 h; Potency, µM (top dose mostly 38.3 µM), inactives show top-dose reporter change, positive = more light; 340,000 tested, under 10 active; active = well fitted rising curve with a large enough effect; inconclusive = small, poorly fitted or top-dose-only effect; inactive = no such curve, though single readings can be large or run the other way;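 also: % of control where 0% means no effect; miR-21 action dims this reporter so a rising signal means less miR-21 action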
#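 Compounds were titrated across several concentrations (up to approximately 40 uM) and incubated 48 hours with HeLa miR-21-FLuc reporter cells (miR-21 target sequence downstream of FLuc, endogenous miR-21). Readout was firefly luciferase luminescence after lytic detection reagent.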
# An asterisk follows results filed as active; ? = inconclusive; . = no result given. An excerpt; the hit share may differ from the screen's.
1) CCCn1c2ccccc2c2cnn(CC(=O)NCCCN3CCN(c4ccccc4)CC3)c(=O)c21
2) CCn1cc(CNC(=O)CSc2nc(-c3ccc(OC)c(OC)c3)cc(C(F)(F)F)n2)c(C)n1
3) CC(C)Oc1cccc(C(=O)N2CCCC2)c1
4) C=CCn1c(SCC(=O)Nc2cc(C)ccc2OC)nnc1-c1ccco1
5) NS(=O)(=O)c1ccc(Sc2ccccn2)c([N+](=O)[O-])c1
6) Cc1ncsc1C(=O)Nc1nc2c(s1)CC(C)CC2 (centres undefined)

entry no. | 1 | 2 | 3 | 4 | 5 | 6
Rango dissoc inh | 16% | 5% | -20% | -11% | 4% | 2%
GLA inh pH 4.5 | . | 2 | -2 | 6 | 0 | 6
Rango-impB inh | 4.9% | -0.5% | -1.8% | 2.6% | 1.0% | 0.0%
miR-21 FLuc | 28% | -14% | -7% | -12% | 0% | -45%

7) CN(CC(=O)Nc1cccc(F)c1)C(=O)c1cc(-c2ccccc2)nc2ccccc12
8) CCCCN(C(=O)c1ccc(S(=O)(=O)N(C)c2ccccc2)cc1)c1c(N)n(CCC)c(=O)[nH]c1=O
9) O=C(CSc1ccc2nnc(-c3ccccc3)n2n1)NCC1CCCO1 (centres undefined)
10) CC(=O)c1cccc(OCC(=O)c2cc(C)n(-c3cc(C)on3)c2C)c1
11) O=C1c2ccccc2NC(c2ccccc2)N1Cc1ccco1 (centres undefined)
12) Cc1ccc(N2CCCn3c2nc2c3c(=O)n(CC(=O)OCc3ccccc3)c(=O)n2C)cc1C

entry no. | 7 | 8 | 9 | 10 | 11 | 12
Rango dissoc inh | -4% | 2% | 0% | 21% | -8% | .
GLA inh pH 4.5 | . | . | -7 | -3 | -2 | 1
Rango-impB inh | 1.1% | -1.4% | -0.3% | -0.4% | 0.8% | .
miR-21 FLuc | . | . | -3% | 9% | -4% | -1%

13) COc1ccc(/C=C/C(=O)OCC(=O)N2CCN(S(=O)(=O)c3ccc(C)cc3C)CC2)cc1OC
14) Oc1cccc2c3c(oc12)CCCC3
15) COC(=O)Nc1ccc(S(=O)(=O)Nc2ccc(C)cc2)cc1
16) CC(C)CN(C(=O)COC(=O)CSc1ccccc1F)c1c(N)n(Cc2ccccc2)c(=O)[nH]c1=O
17) Cn1cnnc1SCC(=O)Nc1ccc(Cl)c(S(=O)(=O)N2CCOCC2)c1
18) Cc1[nH]c2ccccc2c1C(=O)C(=O)N1CC(C)OC(C)C1 (centres undefined)

entry no. | 13 | 14 | 15 | 16 | 17 | 18
Rango dissoc inh | -1% | -5% | . | 3% | 10% | -3%
GLA inh pH 4.5 | . | . | 7 | . | -2 | .
Rango-impB inh | -0.8% | 2.7% | . | 1.5% | -1.1% | -3.3%
miR-21 FLuc | . | . | 10% | . | -1% | 2%

# Arranged by length of the SMILES (ascending): 3 of the compounds above
15) COC(=O)Nc1ccc(S(=O)(=O)Nc2ccc(C)cc2)cc1
17) Cn1cnnc1SCC(=O)Nc1ccc(Cl)c(S(=O)(=O)N2CCOCC2)c1
16) CC(C)CN(C(=O)COC(=O)CSc1ccccc1F)c1c(N)n(Cc2ccccc2)c(=O)[nH]c1=O

entry no. | 15 | 17 | 16
Rango dissoc inh | . | 10% | 3%
GLA inh pH 4.5 | 7 | -2 | .
Rango-impB inh | . | -1.1% | 1.5%
miR-21 FLuc | 10% | -1% | .

# Next entries:
19) Cn1c(=O)c2c(ncn2CCOc2ccc(Br)cc2)n(C)c1=O
20) CCC(C)Sc1nc2c(c(=O)[nH]c(=O)n2C)n1Cc1ccccc1Cl (centres undefined)
21) Cc1sc2ncnc(N3CCC(C(=O)Nc4ccc(F)cc4Cl)CC3)c2c1C
22) CSc1ccc(C#N)cc1NC(=O)c1ccccc1C
23) O=C(COC(=O)CNC(=O)c1ccccc1)Nc1ccc(Cl)cn1
24) COc1cc(CCC(=O)N2CCN(c3ccc([N+](=O)[O-])cc3)CC2)cc(OC)c1OC

entry no. | 19 | 20 | 21 | 22 | 23 | 24
Rango dissoc inh | -11% | -15% | -11% | -12% | 14% | -10%
GLA inh pH 4.5 | . | 7 | . | -9 | . | .
Rango-impB inh | 7.4% | -0.3% | 0.6% | -1.2% | 1.6% | 2.3%
miR-21 FLuc | -6% | -22% | . | -15% | . | 14%

25) CC(=O)c1ccc(NC(=S)N2c3ccccc3CC2C)cc1 (centres undefined)
26) COc1ccc(NC(=O)CNS(=O)(=O)c2cccc3nonc23)c(OC)c1
27) Cc1ccc(C)c(N2CCN(c3cnn(-c4nc5ccccc5s4)c(=O)c3Cl)CC2)c1
28) O=C(NCCc1ccc(Cl)cc1)c1cnc2n(c1=O)CCS2
29) CCOC(=O)c1[nH]c2ccc(Br)cc2c1NC(=O)CCN1CCC(C)CC1
30) Oc1cccc(C(Nc2nccs2)c2ccc3cccnc3c2O)c1 (centres undefined)

entry no. | 25 | 26 | 27 | 28 | 29 | 30
Rango dissoc inh | 3% | 6% | -3% | 10% | 0% | -7%
GLA inh pH 4.5 | 1 | 0 | 0 | 6 | -10 | 2
Rango-impB inh | 2.2% | -3.6% | -0.9% | -0.1% | -0.1% | -0.7%
miR-21 FLuc | -20% | -5% | -63% | -40% | -7% | 19%

# Continued; it opens with the two that closed the last part.
29) CCOC(=O)c1[nH]c2ccc(Br)cc2c1NC(=O)CCN1CCC(C)CC1
30) Oc1cccc(C(Nc2nccs2)c2ccc3cccnc3c2O)c1 (centres undefined)
31) CC(C)(C)N(Cc1ccccc1)C(=O)COc1cccnc1[N+](=O)[O-]
32) CCOC(=O)C1=CCC2c3c(c4ccccc4n3C)C(=O)C1N2C(=O)OC(C)(C)C (centres undefined)
33) Cc1nn2c(-n3ccnc3)c3c(nc2c1-c1ccccc1)CCC3
34) COc1ccccc1-n1c(=O)c(C#N)c(-c2ccc([N+](=O)[O-])cc2)c2cc(C(=O)c3ccccc3O)cnc21
35) O=C(O)c1cc(Br)ccc1NS(=O)(=O)c1cccc2nsnc12
36) COc1ccc(NC(=S)N2CCC(NC(=O)c3ccccc3C)CC2)cc1

entry no. | 29 | 30 | 31 | 32 | 33 | 34 | 35 | 36
Rango dissoc inh | 0% | -7% | -22% | -14% | 4% | -13% | -6% | ?
GLA inh pH 4.5 | -10 | 2 | . | . | -6 | -9 | . | .
Rango-impB inh | -0.1% | -0.7% | -0.8% | -0.5% | 4.1% | ? | 0.4% | 4.6%
miR-21 FLuc | -7% | 19% | -6% | . | -4% | -1% | -7% | 2%

37) c1csc(COc2ccccc2CNC2CCCCC2)c1
38) Cc1c(C(=O)NCc2ccco2)oc2c(Cl)cccc12
39) Cc1nn(-c2ccccc2)nc1CNC(=O)CC(C)(C)C
40) N/C(Cn1cncn1)=N\OC(=O)c1ccc(Cl)cc1Cl
41) O=C(Nc1ccc(Cl)cc1)c1cncs1
42) CC(=O)Nc1cccc(C(=O)OCC(=O)Nc2c(C)nn(-c3ccccc3)c2C)c1

entry no. | 37 | 38 | 39 | 40 | 41 | 42
Rango dissoc inh | -7% | 0% | 3% | -10% | -11% | 0%
GLA inh pH 4.5 | -4 | . | -1 | 6 | . | .
Rango-impB inh | -0.6% | 0.5% | -2.4% | -0.1% | -0.1% | 0.0%
miR-21 FLuc | 9% | . | -5% | -28% | -5% | .

# Shown with bars between the fields: part of the list above
nr | molecule | Rango dissoc inh | GLA inh pH 4.5 | Rango-impB inh | miR-21 FLuc
37 | c1csc(COc2ccccc2CNC2CCCCC2)c1 | -7% | -4 | -0.6% | 9%
38 | Cc1c(C(=O)NCc2ccco2)oc2c(Cl)cccc12 | 0% | . | 0.5% | .
39 | Cc1nn(-c2ccccc2)nc1CNC(=O)CC(C)(C)C | 3% | -1 | -2.4% | -5%
40 | N/C(Cn1cncn1)=N\OC(=O)c1ccc(Cl)cc1Cl | -10% | 6 | -0.1% | -28%
41 | O=C(Nc1ccc(Cl)cc1)c1cncs1 | -11% | . | -0.1% | -5%
42 | CC(=O)Nc1cccc(C(=O)OCC(=O)Nc2c(C)nn(-c3ccccc3)c2C)c1 | 0% | . | 0.0% | .

# (next part)
43) COc1ccc(OC)c(-c2[nH]nc3c2C(c2ccco2)C(C#N)=C(N)O3)c1 (centres undefined)
44) Cc1ccc(C(=O)NCCCNCCCNC(=O)c2ccc(C)nc2)cn1
45) CCOC(=O)c1c(C)[nH]c(C)c1S(=O)(=O)N(C)Cc1ccco1
46) COc1ccc(S(=O)(=O)Cc2ccc(C(=O)NC(C)C)o2)cc1
47) CCOC(=O)c1oc2ccccc2c1CN1CCN(C)CC1
48) O=C(NNC(=S)NCC1CCCO1)c1cccc(S(=O)(=O)N2CCOCC2)c1 (centres undefined)

entry no. | 43 | 44 | 45 | 46 | 47 | 48
Rango dissoc inh | -19% | 13% | 5% | -4% | -14% | -17%
GLA inh pH 4.5 | -5 | 9 | . | -3 | -4 | -17
Rango-impB inh | -6.0% | 3.4% | -0.8% | 10% | 0.4% | 0.4%
miR-21 FLuc | -5% | -6% | -4% | -2% | -1% | 0%

# A different layout for some results above:
[47] CCOC(=O)c1oc2ccccc2c1CN1CCN(C)CC1
  Rango dissoc inh = -14% | GLA inh pH 4.5 = -4 | Rango-impB inh = 0.4% | miR-21 FLuc = -1%

[44] Cc1ccc(C(=O)NCCCNCCCNC(=O)c2ccc(C)nc2)cn1
  Rango dissoc inh = 13% | GLA inh pH 4.5 = 9 | Rango-impB inh = 3.4% | miR-21 FLuc = -6%

# Following part.
49) COc1ccc([C@H]2[C@@H](C#N)[C@H](C#N)N3CCCN23)cc1
50) Cn1ccnc1SCC(=O)c1ccc(F)cc1
51) CC(C)(C)c1ccc(C(=O)N2CCN(CCNC(=O)C(=O)NCc3ccccc3)CC2)cc1
52) Cc1nc2cc(Cl)c([N+](=O)[O-])cc2s1

entry no. | 49 | 50 | 51 | 52
Rango dissoc inh | 11% | 17% | -8% | 0%
GLA inh pH 4.5 | 1 | . | -20 | -1
Rango-impB inh | -4.7% | -0.6% | ? | 0.5%
miR-21 FLuc | -7% | . | 2% | -4%
